Assay outcomes: PubChem BioAssay, Broad Institute
Beta apoptosis: inhibitors of cytokine-induced beta cell apoptosis, primary screen, luminescence. protection from apoptosis, % (no concentration beside the values). 300,000 compounds, 0.8% hits. INS-1E cytokine-induced death, ATP luminescence, 48 h; percent of positive-control rescue, neutral wells zero;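 active means all replicates at 75% or more, or half of them and the mean; inconclusive means half reach 75% but not the mean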;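 further: 0% = cytokine-treated negative control wells and 100% = positive control rescue; higher means more ATP so stronger rescue from cytokine killing; wells of about 40 µL received 100 nL stock; the first replicate is given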
T cruzi inh: inhibitors of intracellular T. cruzi growth, primary screen, luminescence, NIH3T3 host cells. T. cruzi beta-gal in NIH3T3, 90 h. inhibition, % (no concentration beside the values). 300,000 compounds, 1.4% hits. AID 1885, 2009;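 active means mean inhibition across valid replicates above about 55%, limit read from the data; inconclusive means mean below that limit but half or more replicates reach it; inactive means mean below it, under half of replicates reach it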;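 further: signal also drops with host cell toxicity which is not excluded here; 0% = plate median of DMSO wells and 100% = zero luminescence signal; higher percent means less beta-gal luminescence so fewer parasites; stock transfer was 50 nL into about 50 µL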
AF4-AF9 inh: inhibitors of AF4 peptide binding to AF9, primary screen, biochemical, AlphaScreen, biotin-AF4 peptide, FLAG-AF9, single point; Protein AF-9 (Homo sapiens), P42568; inhibition, % at 10 µM; 350,000 compounds, 0.47% hits;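 active means every replicate reaching a set inhibition limit, whatever the replicate mean, cut at about 25% in these data; inconclusive means mean inhibition reaches that limit but some replicates miss it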;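 further: 0% = plate neutral control median and 100% = total signal loss; the record names both 10 and 1 µM as test concentration; the first replicate is given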
Target sequence (P42568 whole entry, looked up): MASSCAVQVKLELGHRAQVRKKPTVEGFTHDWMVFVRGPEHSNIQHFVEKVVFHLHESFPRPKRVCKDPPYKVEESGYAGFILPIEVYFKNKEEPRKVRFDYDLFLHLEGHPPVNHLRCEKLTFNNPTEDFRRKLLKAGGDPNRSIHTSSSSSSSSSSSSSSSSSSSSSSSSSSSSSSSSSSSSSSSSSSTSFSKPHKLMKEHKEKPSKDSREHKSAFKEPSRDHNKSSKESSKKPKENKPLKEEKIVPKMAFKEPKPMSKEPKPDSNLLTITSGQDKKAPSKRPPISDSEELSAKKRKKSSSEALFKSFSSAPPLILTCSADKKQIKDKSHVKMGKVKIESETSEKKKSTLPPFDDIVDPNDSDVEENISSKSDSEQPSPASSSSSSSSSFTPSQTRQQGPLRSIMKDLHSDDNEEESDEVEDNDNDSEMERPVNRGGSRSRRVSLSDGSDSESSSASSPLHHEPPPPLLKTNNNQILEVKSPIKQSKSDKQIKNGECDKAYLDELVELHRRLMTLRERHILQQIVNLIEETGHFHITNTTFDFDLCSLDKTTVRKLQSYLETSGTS
ALR inh: inhibitors of human ALR sulfhydryl oxidase, primary screen, biochemical, H2O2 detection, HRP-luminol luminescence, single point. FAD-linked sulfhydryl oxidase ALR (Homo sapiens), P55789. purified ALR, DTT oxidation. inhibition, % (no concentration beside the values). 290,000 compounds, 3.8% hits. AID 485317, 2010;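 active means mean and each replicate at 75% or more; inconclusive means only one of the two met; inactive means neither met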;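 further: stock transfer was 7.5 nL into about 7.5 µL; 0% = neutral wells and 100% = wells with inactivated enzyme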
Target sequence (P55789 whole entry, looked up): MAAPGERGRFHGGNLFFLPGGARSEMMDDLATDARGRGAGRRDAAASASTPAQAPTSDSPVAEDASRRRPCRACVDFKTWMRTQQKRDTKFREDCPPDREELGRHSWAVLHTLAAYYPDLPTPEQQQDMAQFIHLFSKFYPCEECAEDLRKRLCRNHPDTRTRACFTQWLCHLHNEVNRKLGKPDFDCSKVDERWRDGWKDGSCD
RanGTP-Imp inh: inhibitors of RanGTP-importin-beta interaction, primary screen, biochemical, FRET, CFP-Ran, YFP-importin-beta, homogeneous | Ran GTPase (GTP-bound) - importin-beta complex | cell-free CFP-Ran/YFP-importin-beta FRET ratio | inhibition, % (no concentration beside the values) | 300,000 compounds, 1.1% hits | AID 2216, 2009;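 active means most replicates above 15%; inconclusive means exactly half above 15%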;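 further: 0% = DMSO wells and 100% = Ran loaded with GDP instead of GTP; wells of about 40 µL received 100 nL stock; the first replicate is given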
FGF22 binding: binders of human FGF22 protein, primary screen, FGF22 synaptogenesis inhibitor project, biophysical, thermal shift, single point. calls only at 9.99 µM. 340,000 compounds, 1.5% hits. recombinant FGF22 thermal shift, SYPRO orange fluorescence; percent of sucrose octasulfate shift, DMSO zero;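 active means melting point raised past a set limit in the mean and every replicate; inconclusive means no clear call; three in four hits are not shown here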
Target sequence (Q9HCT0 whole entry, looked up): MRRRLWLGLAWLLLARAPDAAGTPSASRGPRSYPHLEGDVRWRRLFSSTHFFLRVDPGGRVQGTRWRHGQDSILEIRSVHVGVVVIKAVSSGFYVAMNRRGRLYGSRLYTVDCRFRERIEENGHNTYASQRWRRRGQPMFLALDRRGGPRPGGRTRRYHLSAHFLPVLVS
Calb FLC: C. albicans growth inhibition with fluconazole, primary screen, CaCi-2 strain, Alamar Blue fluorescence. C. albicans CaCi-2 (fluconazole-resistant clinical isolate) + fluconazole, 48 h. growth inhibition, % (concentration not given with the values). 300,000 compounds, 0.57% hits;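 active means most replicates above 75%; inconclusive means exactly half above 75%; inactive means most below 75%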;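 further: all wells also contain fluconazole at 8 µg/ml as a sub-toxic cotreatment; 0% = median of DMSO wells and 100% = median of geldanamycin control wells; wells of about 8 µL received 7.5 nL stock; the first replicate is given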
Ecoli rRNA inh: reduced GFP signal of wild-type E. coli, primary screen, bacterial rRNA inhibitor project, GFP/RFP fluorescence, OD600, single point; 350,000 compounds, 1.6% hits; GFP signal change (wild-type ribosome), % (no concentration beside the values); E. coli WT GFP vs humanized-ribosome RFP mutants, 24 h; active compounds read low; DMSO median 0, no signal -100; AID 720706, 2013;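 active means significant combined selectivity score with lowered wild-type GFP, culture density cut under 30%, mutant RFP and density less affected; inactive means any of these conditions unmet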; further: one replicate is shown; some compounds called inactive have numbers as strong as hits
Ecoli rRNA inh OD600: further read-out of Ecoli rRNA inh, marked with its call; OD600 change, %; measured here: OD600 growth;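 optical density of the mix in the first replicate; 0 = DMSO median and -100 = no signal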
Ecoli rRNA inh RFP: recorded beside Ecoli rRNA inh, whose call it bears; RFP signal change, %; measured here: RFP humanized mutant strains;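 first replicate; 0 = DMSO median and -100 = no signal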
Numbers without * were called inactive; i = inactive; ? = inconclusive; nt = not tested or not shown. Not all compounds are listed; the hit share may differ from the screen's.

SMILES	Beta apoptosis	T cruzi inh	AF4-AF9 inh	ALR inh	RanGTP-Imp inh	FGF22 binding	Calb FLC	Ecoli rRNA inh	Ecoli rRNA inh OD600	Ecoli rRNA inh RFP
CC(C)(C)c1ccc(-c2c(C#N)c(N)nc3c2CCCC3)s1	4.2	28.0	nt	-7.0	0.4	nt	-14.0	nt	nt	nt
O=C(O)Cc1ccc(NC(=O)CCN2C(=O)c3ccc([N+](=O)[O-])cc3C2=O)cc1	nt	-10.8	-3.6	nt	1.2	i	-19.1	11.3	15.3	0.6
Cc1nnc(Sc2cc(NCCCO)c([N+](=O)[O-])c3nonc23)s1	nt	15.7	12.0	nt	4.3	nt	3.1	-50.6	-78.3	-14.9
Cc1c(Cl)c([N+](=O)[O-])nn1CCCC(=O)Nc1c(C)n(C)n(-c2ccccc2)c1=O	-4.0	-0.4	-2.4	nt	0.9	i	5.2	11.6	0.6	-1.2
C#CCOCCOCCOCCNc1nc(N2CCN(C(=O)Cn3cc(CCCCN)nn3)CC2)nc(N2CCN(C(=O)[C@H](CCCCN)n3cc(CCCC)nn3)CC2)n1	3.1	nt	12.9	nt	nt	i	nt	5.0	2.7	2.8
COc1cc(CCC(=O)NCC2CCCO2)cc(OC)c1OC (stereo not drawn)	-3.9	-14.0	1.5	1.4	2.3	i	-2.9	5.1	-2.0	-2.1
COc1ccccc1-c1nc(C#N)c(N2CCc3ccccc3C2)o1	0.7	39.0	10.0	1.0	0.4	i	-9.8	-9.8	6.6	7.8
O=C(NCc1ccc2c(c1)OCO2)c1ccc(S(=O)(=O)N2CCOCC2)cc1	2.7	1.7	-2.8	-4.6	?	i	-6.9	4.4	7.5	-0.1
O=C(N/N=C/c1ccc(N2CCCCC2)o1)c1ccccc1[N+](=O)[O-]	-0.8	-1.3	1.9	-6.1	-3.4	i	4.9	38.5	3.6	-7.6
COc1ccc(Cl)cc1NC(=O)CN(C)CC(=O)Nc1ccc(C)cc1Br	-0.4	nt	-1.5	nt	nt	i	-7.9	-25.0	-31.1	-0.7
CC(OC(=O)c1ccc(Br)c(S(=O)(=O)N2CCOCC2)c1)C(=O)NC1CCCCC1C (stereo not drawn)	7.5	16.7	-0.6	-44.1	?	i	0.0	-6.3	-1.0	-4.4
O=C(CSCc1ccccc1)NCCc1ccc(F)cc1	-14.9	0.3	-9.8	-0.8	0.2	i	-1.2	-24.1	-27.9	1.5
O=C(CC(C(=O)O)c1ccc(Cl)cc1)c1ccc(Br)cc1 (stereo not drawn)	-1.8	3.6	-3.0	4.8	1.2	i	-3.5	-0.6	-20.6	2.8
CCCCNS(=O)(=O)c1ccc2nc(SCC(=O)N3CC(C)OC(C)C3)[nH]c2c1 (stereo not drawn)	-6.0	0.6	nt	0.6	2.3	nt	1.5	nt	nt	nt
O=C(COc1cc2oc(=O)cc(-c3ccccc3)c2cc1Cl)NC(Cc1c[nH]c2ccc(O)cc12)C(=O)O (stereo not drawn)	0.0	-24.6	-1.0	nt	-0.1	i	10.5	15.8	4.7	13.2
CCN(C(=O)Cn1c(=O)oc2cc(S(=O)(=O)N3CCOCC3)ccc21)c1ccccc1	-3.3	-5.4	11.7	-2.6	4.8	i	-2.4	0.0	-5.9	-3.8
O=[N+]([O-])c1cccnc1Oc1ccc(F)cc1	-4.3	-5.7	0.0	1.3	-0.9	i	3.9	nt	nt	nt
Cc1cccc(CCN2C(Nc3ccccc3)=NC[C@@H]2CC(C)C)c1	-2.0	nt	-11.7	nt	nt	i	nt	-23.0	-32.5	2.8
Nc1c(Cl)ncnc1N/N=C/c1cccc(O)c1	19.5	-6.7	nt	97.2*	1.5	i	4.5	-12.7	-0.6	1.1
CC(C)Sc1nc2c(c(=O)n1-c1ccc(F)cc1)SCC2	2.0	8.8	nt	3.9	0.7	nt	-3.1	nt	nt	nt
O=C(Cc1ccsc1-c1ccccc1)NO	10.0	11.4	nt	46.8	-2.6	nt	7.7	nt	nt	nt
O=C(CN1C(=O)c2ccccc2S1(=O)=O)c1ccc2c(c1)OCCCO2	-7.7	-9.2	-3.5	-4.5	-1.4	nt	-0.5	-7.5	-10.0	1.3
COc1ccc(NC(=O)CN(c2ccc(C)cc2)S(=O)(=O)c2c(C)nn(C)c2C)cc1OC	-0.1	-20.8	nt	-7.1	-4.1	nt	-11.1	nt	nt	nt
O=S(=O)(c1ccc(-c2csc(=Nc3ccccc3)n2CCCN2CCOCC2)cc1)N1CCOCC1	1.7	20.6	nt	2.7	3.1	nt	-0.9	nt	nt	nt
C/C(=N\Nc1nccnc1Cl)c1ccc(O)c(C)c1	1.0	0.6	1.2	53.5	3.3	i	4.4	7.3	13.9	3.7

Compounds shown so far that have a cyano group (two):
SMILES	Beta apoptosis	T cruzi inh	AF4-AF9 inh	ALR inh	RanGTP-Imp inh	FGF22 binding	Calb FLC	Ecoli rRNA inh	Ecoli rRNA inh OD600	Ecoli rRNA inh RFP
CC(C)(C)c1ccc(-c2c(C#N)c(N)nc3c2CCCC3)s1	4.2	28.0	nt	-7.0	0.4	nt	-14.0	nt	nt	nt
COc1ccccc1-c1nc(C#N)c(N2CCc3ccccc3C2)o1	0.7	39.0	10.0	1.0	0.4	i	-9.8	-9.8	6.6	7.8

Entries listed above that bear a hit mark in ALR inh:
| SMILES | AF4-AF9 inh | ALR inh | RanGTP-Imp inh | FGF22 binding | Ecoli rRNA inh | Ecoli rRNA inh OD600 | Ecoli rRNA inh RFP |
| --- | --- | --- | --- | --- | --- | --- | --- |
| Nc1c(Cl)ncnc1N/N=C/c1cccc(O)c1 | nt | 97.2* | 1.5 | i | -12.7 | -0.6 | 1.1 |

Further structures.
SMILES	Beta apoptosis	T cruzi inh	AF4-AF9 inh	ALR inh	RanGTP-Imp inh	FGF22 binding	Calb FLC	Ecoli rRNA inh	Ecoli rRNA inh OD600	Ecoli rRNA inh RFP
O=[N+]([O-])c1ccc(-c2ccc(/C=N/O)o2)cc1	-1.3	-5.7	6.9	58.4	-4.3	i	-20.6	8.0	-15.6	-6.5
COc1ccc(OC)c(NC(=O)CSc2nnc(CNC(=O)c3cc(OC)c(OC)c(OC)c3)o2)c1	-1.7	13.9	0.2	-27.0	0.5	i	-6.9	5.4	-0.6	-1.4
O=C(CCCN1C(=O)c2cccc3cccc(c23)C1=O)N1CCN(Cc2ccc3c(c2)OCO3)CC1	-2.8	17.0	nt	-27.7	2.2	nt	-29.1	nt	nt	nt
CC(C)C(=O)N1CCC2(CC1)Oc1ccc(Cl)cc1C(=O)C21CC(c2ccc(Cl)cc2)=NO1 (stereo not drawn)	13.1	42.5	0.5	-3.0	-0.2	i	-1.0	21.8	5.7	-2.5
Cc1ccc(N2CCN(C(=O)c3ccccc3NC(=O)c3ccccc3C(=O)O)CC2)cc1	-4.3	-14.0	-4.4	nt	-0.1	i	-6.7	9.8	1.7	-3.9
CC(=C/c1ccco1)/C=N/NC(=O)Cc1cccn1C	-1.3	-10.3	1.2	-9.1	-2.1	i	-14.9	23.9	11.9	6.5
Cc1cccc(-n2c(Cc3cc(=O)[nH]c(=O)[nH]3)nnc2SCC(=O)N2CCCCC2)c1	-2.9	-8.3	-1.7	9.9	0.4	i	-2.7	8.3	5.5	-1.4
CC1=CCC(C(=O)O)C(C(=O)NC2CCCCC2)C1 (stereo not drawn)	3.1	-10.7	-0.3	1.8	1.4	i	0.2	9.0	12.4	-2.8
CC1C[C@@]2(NC(=O)NC2=O)C(C)CN1C (stereo partly drawn)	-6.4	-7.4	nt	-1.6	-4.7	nt	-0.4	nt	nt	nt
Cn1c([N+](=O)[O-])cnc1N1CCN(c2nncs2)C1=O	-4.5	49.8	-1.8	-11.6	4.0	i	-7.7	-2.7	5.6	1.1
Cc1nn(CC(=O)Nc2ccc3c(c2)CCC3)c(C)c1[N+](=O)[O-]	1.9	nt	0.2	-2.8	nt	i	nt	6.2	6.1	0.7
S=C(Nc1ccccc1Cl)N(Cc1ccccc1)Cc1ccccn1	-0.3	0.4	-1.3	-35.5	2.5	i	-0.5	-21.9	-19.2	-1.9
Brc1ccc(C2Nc3cccc4cccc(c34)N2)o1	-0.8	2.5	nt	-11.4	3.8	nt	-24.7	nt	nt	nt
O=C(CC1C(=O)NCCN1C(=O)c1ccc(Cl)cc1)Nc1ccc(F)cc1 (stereo not drawn)	-1.0	-11.7	0.1	5.6	-3.4	i	-22.2	-2.8	8.0	5.3
O=C(Cc1nnc(NC(=O)Nc2ccccc2)s1)NCc1ccccc1	-4.8	-26.6	0.4	-5.5	3.2	i	4.9	20.2	16.4	2.9
COc1cccc([C@@H]2CC=C(C(=O)O)CN2S(=O)(=O)c2ccc(C)cc2)c1	-9.3	nt	-1.7	-2.2	nt	i	nt	-6.9	-8.1	-6.1
COc1ccc(N(CC(=O)NCc2ccco2)C(=O)CNS(=O)(=O)c2ccc(Cl)cc2)cc1	-0.4	6.7	2.1	-0.9	-0.6	i	-1.7	-2.6	-23.4	-0.4
CC(C)CCNC(=O)COc1ccc2c(c1)C(=O)CC(C)(C)O2	-1.8	11.2	nt	9.4	3.5	nt	3.4	nt	nt	nt
CCn1cc(CN2CCC(C(=O)Nc3ccc(Oc4ccccc4F)cc3)CC2)c(C)n1	0.6	32.4	8.2	-3.5	2.5	i	-0.2	1.0	0.8	2.6
Cn1c(SCC(=O)Nc2ccccc2-c2ccccc2)nnc1-c1ccco1	-1.4	4.1	-10.9	nt	-1.8	i	22.1	-23.8*	-13.3*	-6.4*
COc1ccc(N(CC(=O)NC2CCCCC2)S(=O)(=O)c2c(C)[nH]c(=O)[nH]c2=O)cc1	-8.6	-9.5	1.3	-5.4	-1.4	i	-9.0	7.9	9.9	-1.7
CCCOc1ccc(S(=O)(=O)Nc2ccccn2)c2ccccc12	-3.7	9.4	-0.8	-9.5	-3.1	i	-6.4	8.0	3.3	-0.9
COc1ccccc1C(=O)NC(=S)NNC(=O)c1sc2ccccc2c1Cl	11.6	-54.8	nt	-2.9	49.1*	nt	4.2	nt	nt	nt
Cc1cc(C)c2nc(NC(=O)C3CC(=O)N(Cc4ccco4)C3)sc2c1 (stereo not drawn)	-3.3	nt	6.6	nt	nt	i	5.8	-4.0	-13.1	0.9
